High-throughput results from PubChem BioAssay.
FGF22 binding: binders of recombinant human FGF22 by thermal shift; 340,000 compounds, 1.5% hits; SYPRO orange fluorescence; percent of sucrose octasulfate shift, DMSO zero; AID 651658; calls only at 9.99 µM; Q9HCT0;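 active means melting point raised past a set limit in the mean and every replicate; three in four hits are not shown here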
Target sequence (Q9HCT0 whole entry, looked up): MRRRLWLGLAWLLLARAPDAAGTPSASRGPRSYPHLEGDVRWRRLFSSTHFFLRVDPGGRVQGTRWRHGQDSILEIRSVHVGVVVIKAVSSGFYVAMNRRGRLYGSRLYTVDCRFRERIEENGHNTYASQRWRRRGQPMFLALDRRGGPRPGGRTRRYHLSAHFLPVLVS
Calls only; i = inactive. The list is partial (hit frequency here may not be typical).

mol | FGF22 binding
CCC(=O)N1CCC2(CC1)CN(Cc1nccs1)[C@@H](CO)c1c2c2ccc(OC)cc2n1C | i
CC(C)NC(=O)N[C@@H]1C=C[C@H](CC(=O)NC2Cc3ccccc3C2)O[C@@H]1CO | i
CO[C@H](CN(C)S(=O)(=O)c1cccc(Cl)c1)[C@H](C)CN([C@@H](C)CO)S(=O)(=O)c1ccc(Cl)cc1 | i
CCC(=O)Nc1ccc2c(c1)C(=O)N(C)[C@H]1CC[C@@H](CC(=O)NCCOC)O[C@@H]1CO2 | i
CCC(=O)N1CC[C@@H]2[C@@H](CO)N(C)c3ccc(-c4cccc(F)c4)cc3[C@@H]21 | i
C[C@H]1CN([C@@H](C)CO)C(=O)c2cc(NC(=O)NC3CCCCC3)ccc2O[C@H]1CN(C)Cc1ccc(C(=O)O)cc1 | i
CCC(=O)N[C@@H]1C=C[C@H](CC(=O)NCC2CCCCC2)O[C@H]1CO | i
COc1cccc(C(=O)Nc2ccc3c(c2)C(=O)N(C)[C@@H]2CC[C@@H](CC(=O)N[C@H](C)c4ccccc4)O[C@@H]2CO3)c1 | i
C[C@@H]1CN([C@H](C)CO)C(=O)c2cc(-c3cccnc3)cnc2O[C@@H]1CN(C)C(=O)C1CCC1 | i
COc1ccc(S(=O)(=O)Nc2ccc3c(c2)CC(=O)N([C@@H](C)CO)C[C@@H](C)[C@H](CN(C)S(=O)(=O)c2ccc(F)cc2)O3)cc1 | i
COCC#Cc1cnc2c(c1)C(=O)N([C@H](C)CO)C[C@H](C)[C@H](CN(C)C(=O)CN1CCOCC1)O2 | i
N#C[C@@H]1[C@@H](c2ccccc2)[C@H](CO)N1C(=O)C1CCCC1 | i
COc1ccc(S(=O)(=O)N(C)C[C@@H]2OCCCC[C@@H](C)Oc3ccc(N(C)C)cc3C(=O)N([C@@H](C)CO)C[C@@H]2C)cc1 | i
CN1C[C@H]2[C@@H](c3ccccc31)[C@@H](CO)N2Cc1ccccc1Cl | i
C[C@@H]1CN([C@H](C)CO)C(=O)CCCn2cc(nn2)CO[C@H]1CN(C)Cc1ccc(C(F)(F)F)cc1 | i
C[C@@H]1CN([C@H](C)CO)C(=O)c2cc(NC(=O)Nc3cccc4ccccc34)ccc2O[C@@H](C)CCCCO[C@H]1CN(C)C(=O)c1ccccc1 | i
C[C@@H]1CN([C@H](C)CO)C(=O)c2cccc(NC(=O)Nc3ccccc3)c2O[C@@H]1CN(C)C(=O)NC1CCCCC1 | i
COc1ccccc1C#Cc1cnc2c(c1)C(=O)N([C@H](C)CO)C[C@@H](C)[C@H](CN(C)C(C)=O)O2 | i
CCN1[C@H](C(=O)OC)[C@@H](CO)[C@@H]2Cn3c(ccc(C4=CCCCC4)c3=O)[C@@H]21 | i
CN(C)CCCNC(=O)[C@H]1[C@H](CO)[C@H]2Cn3c(ccc(C4=CCCC4)c3=O)[C@@H]1N2Cc1cocn1 | i
N#C[C@H]1N[C@H](CO)[C@@H]1c1ccc(C#Cc2cccnc2)cc1 | i
CCC(=O)N1C[C@H](C)[C@@H](OC)CN(C)C(=O)c2cc(NC(=O)Nc3ccc(Cl)cc3)ccc2OC[C@@H]1C | i
CCCC(=O)N1CCC2(CC1)CN(C(=O)Nc1cccc(F)c1)[C@@H](CO)c1c2c2ccc(OC)cc2n1C | i
Cc1ccc(S(=O)(=O)Nc2ccc3c(c2)C(=O)N([C@@H](C)CO)C[C@@H](C)[C@H](CN(C)Cc2ccncc2)OCCCC[C@@H](C)O3)cc1 | i
CCCCCCc1ccc(-c2ccc(C#N)cc2)cc1 | i
C[C@@H](NC(=O)C[C@@H]1C=C[C@@H](NC(=O)CN2CCOCC2)[C@H](CO)O1)c1ccccc1 | i
CO[C@H]1CN(C)C(=O)c2ccc(NC(C)=O)cc2OC[C@H](C)N(C(=O)c2cccnc2)C[C@H]1C | i
CCC(=O)Nc1ccc2c(c1)OC[C@H](C)N(C(=O)NC(C)C)C[C@H](C)[C@H](OC)CN(C)C2=O | i
COCC(=O)N1C[C@H](C)[C@@H](OC)CN(C)C(=O)c2cc(NC(=O)c3ccc(OC)cc3)ccc2OC[C@@H]1C | i
COc1ccc(CN(C)C[C@H]2Oc3ccc(NS(=O)(=O)c4cn(C)cn4)cc3C(=O)N([C@H](C)CO)C[C@@H]2C)cc1 | i
O=C(C[C@@H]1C=C[C@H](NC(=O)c2ccccc2)[C@H](CO)O1)Nc1ccc(-c2ccccc2)cc1 | i
COC(=O)C[C@@H]1CC[C@H]2[C@@H](COC[C@H](O)CN2C(=O)Nc2ccccc2OC)O1 | i
O=C(c1cccnc1)N1C[C@@H]2[C@H](c3ccccc31)[C@@H](CO)N2Cc1ccc2c(c1)OCO2 | i
Cc1noc(C)c1NC(=O)Nc1cccc2c1O[C@@H](CN(C)Cc1ccc(-c3ccccc3)cc1)[C@H](C)CN([C@@H](C)CO)C2=O | i
Cc1ccc(S(=O)(=O)N(C)C[C@@H]2Oc3c(NC(=O)Nc4ccc(C(F)(F)F)cc4)cccc3C(=O)N([C@H](C)CO)C[C@@H]2C)cc1 | i
O=C1O[C@H](c2ccccc2)[C@H](c2ccccc2)N2[C@H]1[C@@H](C(=O)N1CCCCCCC1)[C@]1(C(=O)Nc3ccc(C#CC4=CCCCC4)cc31)[C@H]2c1ccccc1OCCO | i
COCC(=O)N1C[C@H](C)[C@H](OC)CN(C)C(=O)c2ccc(NS(C)(=O)=O)cc2OC[C@H]1C | i
Cc1noc(C)c1NC(=O)Nc1ccc2c(c1)C(=O)N([C@@H](C)CO)C[C@@H](C)[C@H](CN(C)Cc1ccc(Oc3ccccc3)cc1)O2 | i
COc1ccc(NC(=O)Nc2ccc3c(c2)[C@@H]2C[C@H](CC(=O)NCC4CC4)O[C@@H](CO)[C@@H]2O3)cc1 | i
Cc1ccc(S(=O)(=O)Nc2ccc3c(c2)C(=O)N([C@@H](C)CO)C[C@@H](C)[C@@H](CN(C)C)OCCCC[C@@H](C)O3)cc1 | i
COc1ccccc1S(=O)(=O)N[C@@H]1CC[C@@H](CCNC(=O)C2CCOCC2)O[C@H]1CO | i
O=C(c1cccc(F)c1)N1C[C@@H]2[C@H](c3ccccc31)[C@@H](CO)N2C(=O)c1ccc(F)cc1 | i
COCC(=O)Nc1ccc2c(c1)C(=O)N(C)C[C@H](OC)[C@@H](C)CN(CC1CC1)[C@H](C)CO2 | i
O=S(=O)(N[C@H]1CC[C@@H](CCn2cc(-c3ccccn3)nn2)O[C@H]1CO)c1cccc(Cl)c1 | i
C[C@H]1CN([C@@H](C)CO)C(=O)CCCn2cc(nn2)CO[C@H]1CN(C)Cc1ccc(Cl)c(Cl)c1 | i
CC(C)NC(=O)N(C)C[C@@H]1OCCCC[C@H](C)Oc2ccc(NC(=O)c3ccccc3)cc2C(=O)N([C@H](C)CO)C[C@H]1C | i
CO[C@H]1CN(C)C(=O)c2ccc(NS(C)(=O)=O)cc2OC[C@@H](C)N(Cc2nccs2)C[C@H]1C | i
Cc1ccc(S(=O)(=O)NCC[C@@H]2CC[C@H](NC(=O)c3cccnc3)[C@H](CO)O2)cc1 | i
COc1ccc(S(=O)(=O)N(C)C[C@H]2Oc3ccc(NC(=O)CCC(F)(F)F)cc3CC(=O)N([C@H](C)CO)C[C@@H]2C)cc1 | i
N#Cc1cccc(-c2ccc([C@@H]3[C@H]4CN(C(=O)Nc5cccc(F)c5)CCCCN4[C@H]3CO)cc2)c1 | i
O=C(N[C@H]1CC[C@H](CCn2cc(-c3ccccn3)nn2)O[C@H]1CO)c1ccccc1 | i
COCC#Cc1cnc2c(c1)C(=O)N([C@@H](C)CO)C[C@@H](C)[C@H](CN(C)C(=O)C1CC1)O2 | i
CC(C)NC(=O)Nc1ccc2c(c1)CC(=O)N([C@H](C)CO)C[C@H](C)[C@@H](CN(C)S(=O)(=O)c1ccc(Cl)cc1)O2 | i
COc1ccc(NC(=O)N(C)C[C@H]2OCc3ccccc3-c3ccccc3C(=O)N([C@H](C)CO)C[C@H]2C)cc1 | i
CCNC(=O)C[C@H]1C=C[C@@H](NC(=O)C2CCC2)[C@@H](CO)O1 | i
C[C@@H]1CN([C@@H](C)CO)C(=O)c2c(c3ccccc3n2C)-c2ccccc2CO[C@@H]1CN(C)Cc1ccccc1C(F)(F)F | i
C[C@H]1CN([C@@H](C)CO)C(=O)Cc2cc(NS(C)(=O)=O)ccc2O[C@H]1CN(C)S(=O)(=O)c1ccccc1 | i
COc1ccc(S(=O)(=O)Nc2ccc3c(c2)C(=O)N([C@@H](C)CO)C[C@H](C)[C@H](CN(C)Cc2ccc(Cl)c(Cl)c2)O3)cc1 | i
C[C@H]1CN([C@@H](C)CO)C(=O)c2cc(-c3cccnc3)cnc2O[C@@H]1CN(C)C(=O)c1ccccc1F | i
C[C@@H]1CN([C@H](C)CO)S(=O)(=O)c2ccc(C#Cc3ccncc3)cc2O[C@@H]1CN(C)CC1CC1 | i

Overlap with the part before: 3 compounds, then new ones.
mol | FGF22 binding
COc1ccc(S(=O)(=O)Nc2ccc3c(c2)C(=O)N([C@@H](C)CO)C[C@H](C)[C@H](CN(C)Cc2ccc(Cl)c(Cl)c2)O3)cc1 | i
C[C@H]1CN([C@@H](C)CO)C(=O)c2cc(-c3cccnc3)cnc2O[C@@H]1CN(C)C(=O)c1ccccc1F | i
C[C@@H]1CN([C@H](C)CO)S(=O)(=O)c2ccc(C#Cc3ccncc3)cc2O[C@@H]1CN(C)CC1CC1 | i
CCCNC(=O)[C@@H]1[C@@H](CO)[C@@H]2Cn3c(cccc3=O)[C@H]1N2Cc1cc(F)ccc1F | i
COc1ccccc1-c1cnc2c(c1)C(=O)N([C@@H](C)CO)C[C@H](C)[C@H](CN(C)CC1CCOCC1)O2 | i
C/C=C/c1ccc([C@@H]2[C@H](CO)N(C(C)=O)C23CN(C(=O)c2ccccc2)C3)cc1 | i
CO[C@H]1CN(C)C(=O)c2ccc(NC(=O)C3CCCC3)cc2OC[C@H](C)N(C(=O)CC2CC2)C[C@@H]1C | i
O=C(C[C@H]1CC[C@@H](NC(=O)c2ccccc2)[C@H](CO)O1)Nc1ccc(-c2ccccc2)cc1 | i
C[C@H](CO)N1C[C@H](C)[C@H](CN(C)S(=O)(=O)c2ccc(C#N)cc2)Oc2ncc(-c3cccc(C(F)(F)F)c3)cc2C1=O | i
O=C(CN1CCOCC1)NCC[C@@H]1CC[C@@H](NC(=O)Nc2ccc(F)cc2)[C@@H](CO)O1 | i
COc1ccc(NC(=O)Nc2ccc3c(c2)C(=O)N([C@H](C)CO)C[C@H](C)[C@@H](CN(C)C(=O)Nc2cccc4ccccc24)OCCCC[C@@H](C)O3)cc1 | i
C[C@@H]1CN([C@@H](C)CO)C(=O)c2cccc(N(C)C)c2O[C@H]1CN(C)S(=O)(=O)c1ccc(F)cc1 | i
COCCOC(=O)N1C(=O)[C@@]2(c3cc(C#CCC(C(=O)OC)C(=O)OC)ccc31)[C@H](C(=O)N1CCc3cc(OC)c(OC)cc3C1)[C@H]1C(=O)O[C@H](c3ccccc3)[C@H](c3ccccc3)N1[C@@H]2c1ccc(O)cc1 | i
CCC(=O)N(C)C[C@@H]1Oc2cc(C#Cc3ccccc3)ccc2S(=O)(=O)N([C@H](C)CO)C[C@@H]1C | i
COc1ccc(CN(C)C[C@H]2Oc3c(NS(=O)(=O)c4ccccc4)cccc3C(=O)N([C@@H](C)CO)C[C@@H]2C)cc1 | i
O=C(NCCCN1CCOCC1)[C@@H]1N[C@@H]2c3ccc(C4=CCCC4)c(=O)n3C[C@@H]2[C@H]1CO | i
COc1ccc(S(=O)(=O)N(C)C[C@H]2OCCCC[C@@H](C)Oc3ccc(NS(=O)(=O)c4cn(C)cn4)cc3C(=O)N([C@H](C)CO)C[C@@H]2C)cc1 | i
CCC(=O)N1C[C@H](O)COC[C@@H]2O[C@@H](CC(=O)NC)CC[C@H]21 | i
O=C(NC1CCCCC1)N[C@H]1CC[C@@H](CCNS(=O)(=O)c2ccccc2)O[C@@H]1CO | i
CC(C)NC(=O)N(C)C[C@H]1Oc2ncc(C#Cc3ccccc3F)cc2C(=O)N([C@@H](C)CO)C[C@H]1C | i
CCCNC(=O)C[C@@H]1CC[C@@H]2[C@H](COC[C@H](O)CN2C(=O)c2cccnc2)O1 | i
COc1ccc2c3c([nH]c2c1)[C@@H](CO)N(Cc1ccccc1F)CC31CN(C(=O)C2CCCC2)C1 | i
COc1ccccc1NC(=O)N[C@@H]1C=C[C@@H](CC(=O)N[C@H](C)c2ccccc2)O[C@@H]1CO | i

The last 4 entries of the part above come first, to join the parts.
mol | FGF22 binding
CC(C)NC(=O)N(C)C[C@H]1Oc2ncc(C#Cc3ccccc3F)cc2C(=O)N([C@@H](C)CO)C[C@H]1C | i
CCCNC(=O)C[C@@H]1CC[C@@H]2[C@H](COC[C@H](O)CN2C(=O)c2cccnc2)O1 | i
COc1ccc2c3c([nH]c2c1)[C@@H](CO)N(Cc1ccccc1F)CC31CN(C(=O)C2CCCC2)C1 | i
COc1ccccc1NC(=O)N[C@@H]1C=C[C@@H](CC(=O)N[C@H](C)c2ccccc2)O[C@@H]1CO | i
CCC(=O)N[C@@H]1C=C[C@H](CC(=O)OC)O[C@H]1CO | i
O=C(Cc1c[nH]c2ccccc12)Nc1ccc(Nc2cccnc2)cc1 | i
COc1ccc(-c2ccc3c(c2)O[C@H](CN(C)C(=O)c2ccccc2F)[C@H](C)CN([C@@H](C)CO)S3(=O)=O)cc1 | i
COc1cccc(NC(=O)N(C)C[C@@H]2Oc3cc(C#Cc4ccncc4)ccc3S(=O)(=O)N([C@@H](C)CO)C[C@@H]2C)c1 | i
COc1ccc2c3c([nH]c2c1)[C@H](CO)N(C(=O)c1cccnc1)CC31CN(C(=O)NC(C)C)C1 | i
C[C@H](CO)N1C[C@H](C)[C@H](CN(C)Cc2ccc(C(=O)Nc3ccccc3N)cc2)Oc2c(NC(=O)C3CC3)cccc2C1=O | i
